KCNQ2 enhance: potentiators of rat KCNQ2 potassium channel; CHO-K1 KCNQ2, FluxOR thallium flux fluorescence; active compounds read high; B-score at 10 µM; 310,000 tested, 0.54% active;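 active = fluorescence ratio B-score at least 3 SD of library B-scores, with initial fluorescence B-score within 3 SD, cut at about 5.3 in these data; same plate scores as AID 2156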;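 also: B-score of peak minus minimum over baseline fluorescence ratio after K+ and Tl+ stimulus; positive B-score means potentiation of KCNQ2 with more thallium influx and brighter signal; only the inactives scoring about 0 or higher are listed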
Target sequence (O88943 whole entry, looked up): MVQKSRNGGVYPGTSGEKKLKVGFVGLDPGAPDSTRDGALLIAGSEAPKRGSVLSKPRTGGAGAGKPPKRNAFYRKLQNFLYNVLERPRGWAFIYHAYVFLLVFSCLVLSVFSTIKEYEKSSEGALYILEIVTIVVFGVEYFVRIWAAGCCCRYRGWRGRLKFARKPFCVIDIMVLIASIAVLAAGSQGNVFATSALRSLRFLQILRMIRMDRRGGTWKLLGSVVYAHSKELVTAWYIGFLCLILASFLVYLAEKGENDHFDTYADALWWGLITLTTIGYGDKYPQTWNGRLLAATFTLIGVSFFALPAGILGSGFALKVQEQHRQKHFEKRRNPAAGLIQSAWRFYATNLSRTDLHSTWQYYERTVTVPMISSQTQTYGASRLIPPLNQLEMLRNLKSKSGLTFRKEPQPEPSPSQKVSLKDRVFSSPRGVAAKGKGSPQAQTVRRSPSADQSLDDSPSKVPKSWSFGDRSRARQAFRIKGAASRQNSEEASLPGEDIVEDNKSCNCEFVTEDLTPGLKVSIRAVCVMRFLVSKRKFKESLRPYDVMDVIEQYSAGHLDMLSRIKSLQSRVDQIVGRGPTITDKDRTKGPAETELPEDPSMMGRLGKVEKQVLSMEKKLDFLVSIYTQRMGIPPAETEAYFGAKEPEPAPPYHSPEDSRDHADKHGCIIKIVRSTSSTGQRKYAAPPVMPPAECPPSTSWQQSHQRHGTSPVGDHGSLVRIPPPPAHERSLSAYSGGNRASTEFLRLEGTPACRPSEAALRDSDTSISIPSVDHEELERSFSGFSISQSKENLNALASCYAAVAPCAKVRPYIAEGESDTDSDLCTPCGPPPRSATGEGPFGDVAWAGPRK
KCNQ2 enhance baseline: second read-out of KCNQ2 enhance, no call of its own (marks repeat the call); B-score; compound at 10 µM; measured here: initial fluorescence intensity artifact check;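 brightness before thallium and not channel activity; 0 = typical well and far values either way flag optical interference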
Active calls of the source: *. These rows are one share of the data; rates above refer to the full screens.

molecule	KCNQ2 enhance	KCNQ2 enhance baseline
CCCOC(=O)CSC1=C(C#N)C(c2ccccc2OC)C(C#N)C(=O)N1 (configuration not stated)	0.16	0.67
C=CCNc1nc(N2CCCCC2)c(C#N)c2c1CN(Cc1ccccc1)CC2	0.09	0.25
COc1cc(C(=O)Nc2sc3c(c2C#N)CCN(C(C)=O)C3)cc(OC)c1OC	0.74	0.53
O=C(CN1CCN(Cc2ccccc2)CC1)Nc1ccc(Cl)cn1	0.78	0.02
Cc1c(C)c2ccc(OC(C)C(=O)NCCCN3CCOCC3)c(C)c2oc1=O (configuration not stated)	0.08	-0.83
Cc1nc(NCCc2ccccc2)sc1C(=O)O	1.4	-0.4
COC(=O)c1cccc(Nc2nc(-c3cccnc3)nc3ccccc23)c1	1.2	0.16
Cc1[nH]c(=S)c(C#N)c(C)c1Cc1ccccc1	1.4	-0.32

Brought forward from above: 7 compounds; new compounds follow.
molecule	KCNQ2 enhance	KCNQ2 enhance baseline
C=CCNc1nc(N2CCCCC2)c(C#N)c2c1CN(Cc1ccccc1)CC2	0.09	0.25
COc1cc(C(=O)Nc2sc3c(c2C#N)CCN(C(C)=O)C3)cc(OC)c1OC	0.74	0.53
O=C(CN1CCN(Cc2ccccc2)CC1)Nc1ccc(Cl)cn1	0.78	0.02
Cc1c(C)c2ccc(OC(C)C(=O)NCCCN3CCOCC3)c(C)c2oc1=O (configuration not stated)	0.08	-0.83
Cc1nc(NCCc2ccccc2)sc1C(=O)O	1.4	-0.4
COC(=O)c1cccc(Nc2nc(-c3cccnc3)nc3ccccc23)c1	1.2	0.16
Cc1[nH]c(=S)c(C#N)c(C)c1Cc1ccccc1	1.4	-0.32
CCc1nn(CC(=O)NC(C)CCc2ccccc2)c(=O)c2cc3occc3n12 (configuration not stated)	0.01	-2.4
Cc1ccc(CN2CC(C(=O)O)CC2=O)cc1 (configuration not stated)	0.62	0.74
CN1CCN(C(=O)CN(C)S(=O)(=O)c2ccc3ccccc3c2)CC1	0.43	0.24
Cc1cc(C)n2nc(SCCOc3ccc(F)cc3)nc2n1	0.95	4.5
CN(C)/C=C/C(=O)C(F)(F)F	1.7	-0.81
COc1cccc(NC(=O)COC(=O)c2ccc(F)cc2F)c1	0.13	0.39
CCn1c(=N)n(CC(=O)c2ccc(Cl)c(Cl)c2)c2ccccc21	0.22	1.2
O=C1NCCCC1C(=O)N/N=C/c1ccc([N+](=O)[O-])cc1 (configuration not stated)	0.29	0.81
COC(=O)CNC(=O)Cn1cnc2sc(C)c(S(=O)(=O)N3CCC(C)CC3)c2c1=O	0.76	-0.05
COc1ccc(S(=O)(=O)N2CCOCC2)c(Cl)c1Cl	0.74	-0.2
COc1ccc(Cl)cc1C(=O)Nc1cccc2ncccc12	0.75	-1.3
CC(=O)Oc1ccc(Cn2cnc3cc4ccccc4cc32)cc1	1.1	0.16
COc1cccc(C(c2c(NC(=O)c3ccccc3)sc(C)c2C)N2CCN(C)CC2)c1 (configuration not stated)	0.01	0.42
Cc1nnc(N(C)C(=O)c2ccc3c(c2)OCO3)s1	0.5	0.81
CC1(C)C2CCC(C2)C1(C)NC(=O)CN1CCCC1 (configuration not stated)	0.16	-0.67
Cc1cc(C(=O)CC#N)c(C)n1-c1c(C)n(C)n(-c2ccccc2)c1=O	0.34	-0.18
COc1cc(COc2ccc3c(C)c(CCC(=O)O)c(=O)oc3c2)cc(OC)c1OC	0.6	1.8
c1cc(-c2nn[nH]n2)ccc1CN1CCCCC1	1	-0.67
c1ccc(-c2ccc(-c3ccccn3)s2)nc1	0.16	0.54
O=C(COC(=O)c1cc(=O)[nH]c(=O)[nH]1)NCc1ccccc1	0.57	-0.24
C#CCOc1nc(C)cc(C)c1S(=O)(=O)c1ccccc1C	0.79	0.84
CCOC(=O)c1sc(C)c2c(=O)n(Cc3ccc(Cl)cc3)cnc12	1.4	0.71
O=C(NCCc1ccc(Cl)cc1)C1CCC(=O)N1Cc1ccc(F)cc1 (configuration not stated)	0.73	-0.02
Nc1nonc1-n1nnc(C(=O)N/N=C/c2ccccc2)c1CSc1ccc(Cl)cc1	0.01	-0.07
O=C(Nc1ccncc1)c1ccc2ncsc2c1	0.39	0.21
CN(CC(=O)Nc1ccc(N2CCOCC2)cc1)CC(=O)Nc1ccc(N2CCOCC2)cc1	0.64	-0.25
Cc1ccc(SCCNC(=O)c2ccccc2C)cc1	1.3	0.22
C=CCn1cnc2c(nnn2-c2ccc(C)c(C)c2)c1=O	1.8	0.75
CC1CCCCN1S(=O)(=O)c1cnc(Cl)c(Br)c1 (configuration not stated)	0.12	2.3
O=c1c(Br)c(NCc2ccccc2)cnn1-c1ccc(F)cc1	0.59	0.44
COc1cc(/C=C/c2noc(-c3ccccc3O)n2)cc(OC)c1OC	0.36	0.06
CCCc1cc(=O)[nH]c(SCC(=O)c2cc(C)n(CCOC)c2C)n1	0.18	-0.45
CCOC(=O)c1cc(=O)c2c([N+](=O)[O-])ccc(OC)c2o1	0.91	1.1
O=C(N/N=C/c1ccc(OC(F)F)cc1)C1=COCCO1	1.3	-1.2
CC(=O)Nc1ccc(NC(=O)c2cc(=O)c3ccc(C)cc3o2)cc1	0.64	-0.73
O=C(Nc1ccc(Cl)cc1)OCc1cncs1	1.5	-0.15
NC(=O)C1=C[C@H](c2ccc3c(c2)OCO3)C[C@H](OCc2ccc(CO)cc2)O1	0.64	0.02
Cc1noc(C)c1S(=O)(=O)Nc1ccccc1Cl	1.8	-1.2
COCc1cc(/C=N\NC(=O)COc2ccc(Cl)cc2)ccc1OC	0.48	0.45
O=C(CSc1nc2ccccc2s1)Nc1cc(S(=O)(=O)N2CCOCC2)ccc1O	0.72	0.17

By substructure, the entries above containing an NH in an aromatic ring.
molecule	KCNQ2 enhance	KCNQ2 enhance baseline
Cc1[nH]c(=S)c(C#N)c(C)c1Cc1ccccc1	1.4	-0.32
c1cc(-c2nn[nH]n2)ccc1CN1CCCCC1	1	-0.67
O=C(COC(=O)c1cc(=O)[nH]c(=O)[nH]1)NCc1ccccc1	0.57	-0.24
CCCc1cc(=O)[nH]c(SCC(=O)c2cc(C)n(CCOC)c2C)n1	0.18	-0.45

Going on with the list.
molecule	KCNQ2 enhance	KCNQ2 enhance baseline
S=C(NCc1ccccc1)NC1CCCCC1	1.3	0.32
O=C1C[C@@H](c2ccccc2)Oc2cc(O)cc(O)c21	0.64	-0.82
O=C(CN1C(=O)CSc2ncccc21)Nc1ccccc1F	0.94	-0.69
COc1ccc(CCNC(=O)CCNS(=O)(=O)c2cccc3nonc23)cc1OC	0.44	0.71
O=C(NCc1ccncc1)c1ccc(Cl)c(S(=O)(=O)N2CCCCC2)c1	0.75	0.18
COC(=O)c1c(NC(=O)C2CC2)sc2c1CCN(C(C)=O)C2	0.56	-0.35
CCNC(=O)CSc1nnc(-c2cccs2)o1	1.5	-0.96
CS(=O)(=O)c1ccc2nc(NC(=O)Nc3ccccc3F)sc2c1	0.27	0.47
Cc1onc(-c2ccccc2Cl)c1C(=O)NCc1ccco1	0.72	0.03
COc1ccc(/C(N)=N/O)cc1O	0.21	0.18
O=C(CCC1CCCCC1)NC1=NCCS1	2.3	2.5
CN(CC(=O)Nc1ccccc1Br)C(=O)CCc1nc2ccccc2c(=O)[nH]1	1.1	-0.35
CC(=O)NCCC(=O)Nc1nc2c(ccc3ccccc32)s1	0.07	-0.01
Cc1ccc(CNC(=O)C(NS(=O)(=O)c2cccs2)C(C)C)cc1 (configuration not stated)	2.9	1.4
COc1ccccc1CNC(=O)c1ccc(CNc2c(N3CCCC3)c(=O)c2=O)cc1	0.31	1.1
N=C1SCC(=O)N1c1ncc(Cc2ccc(F)cc2)s1	6.9*	1.2*

(next part)
Each structure is followed by: KCNQ2 enhance, KCNQ2 enhance baseline
- COc1ccc(NC(=O)c2cc3c(CO)cnc(C)c3oc2=Nc2cccc(C)c2)c(OC)c1
    0.34, 0.31
- CCOc1ccc(NC(=S)N(CCN2CCOCC2)Cc2cc3cc4c(cc3[nH]c2=O)OCO4)cc1
    0.61, 0.22
- [N-]=[N+]=NC1C[C@H](n2ccc(=O)[nH]c2=O)O[C@@H]1CO (some centres not stated)
    0.84, -0.49
- O=c1c(Cc2ccc(F)cc2)c(O)ccn1Cc1ccc(Cl)cc1Cl
    0.31, 0.68
- COC(=O)[C@H](C)NC(=O)Nc1cc(Cl)ccc1C
    0.02, 2.1
- Cc1ccc2c(NC(=O)C3CC3)cccc2n1
    0.77, -0.88
- COc1ccc(NC(=O)/C=C/c2ccc(OC)c(OC)c2)cn1
    0.01, -1.9
- Cc1cccc(C(=O)NC2CC3CCCC(C2)N3C(=O)NC2CCCCC2)c1 (configuration not stated)
    0.03, -0.76
- O=C(/C=C/c1ccc(F)cc1)N1CCCN(C(=O)/C=C/c2ccc(F)cc2)CC1
    0.28, 0.73
- OCCC1CN(Cc2cccn2-c2nccs2)CCN1C1CCCCC1 (configuration not stated)
    0.83, 0.24
- COc1ccc(/C=N/NC(=O)c2ccncc2)cc1[N+](=O)[O-]
    0.46, -0.71
- CCN(CC)CCOC(=O)/C=C/c1ccccc1
    0.09, 0.45
- CC(=O)Nc1cccc(-c2nc3ccccc3s2)c1
    2.4, 0.25
- C/C(CC(=O)Nc1ccc(OCc2ccccc2)cc1)=N\NC(=O)C(=O)Nc1cccc(C)c1
    2, 0.57
- Cc1cccc(NC(=O)CCSc2nnc(Cc3ccccc3)o2)c1
    2, -0.69
- CSc1n[nH]c(=O)n1-c1cccc(Cl)c1
    0.02, -0.77
- COc1ccc(C(=O)NCCCSc2ccccc2)cc1F
    1.2, 3.1
- CCCOC1CCCN(C(=O)c2ccc(OC3CCN(Cc4ccccn4)CC3)cc2)C1 (configuration not stated)
    1.3, -1.8
- COc1ccc(N(C(=O)Cn2nnc3ccccc32)C(C(=O)NCc2ccco2)c2ccncc2)cc1 (configuration not stated)
    1.3, 0.97
- O=C(Nc1ccc(F)cc1)C1CC2CCC1C2 (configuration not stated)
    1.4, -1
- O=C(O)c1ccc(N2C(=O)c3cccnc3C2=O)cc1
    0.58, -0.63
- CCC(C)NS(=O)(=O)c1cccs1 (configuration not stated)
    0.64, 0.41
- CCCCCCn1c(Br)nc2c1c(=O)n(C)c(=O)n2C
    1.3, -0.02
- O=C1CCCN1CCCNC(=S)Nc1ccccc1Cl
    0.23, -0.02
- CC1(OC(=O)C2CCCC2)C(=O)C=C2C=C(c3ccsc3)N(C3CCCCC3)C=C2C1=O (configuration not stated)
    0.16, -0.7
- Cc1cccc(C)c1NC(=O)CSCCO
    0.8, -1.2
- CC(=O)N(CCc1cccc(C)c1)Cc1cc2cc(C)ccc2[nH]c1=O
    0.19, -0.32
- O=C(C1CCN(S(=O)(=O)c2cccs2)CC1)N1CCCCCC1
    0.78, 0.36
- CCOc1cc(CNS(=O)(=O)c2ccc3c(c2)CC(=O)N3C)cc(OCC)c1OCC
    0.59, 1.1
- Cc1ccc(SCC(=O)Nc2cccc(NC(=O)c3ccco3)c2)cc1
    2, -0.26
- O=c1[nH]c(=O)n(CCO)c2nnn(Cc3ccccc3)c12
    0.75, -0.15
- CCCc1cc(=O)n2[nH]c(CCc3ccccc3)nc2n1
    1.4, 0.48
- O=C(Nc1ccc(Br)cn1)c1cccc2c1-c1ccccc1C2=O
    0.1, -0.48
- Nc1cc([N+](=O)[O-])ccc1Nc1ccccc1
    2.5, 1.4
- COc1cc(OC)c(C2C(C(=O)Nc3ccccc3)=C(C)Nc3ncnn32)cc1OC (configuration not stated)
    0.66, -1.8
- CCN(CC)C(=O)C1CCN(Cc2ccc(Br)cc2)CC1
    1.7, -0.97
- COc1cccc(C(C)NC(=O)Cc2cccs2)c1 (configuration not stated)
    1.3, 3.2
- CCOC(=O)c1[nH]c2ccc(Br)cc2c1NC(=O)CCN1CCCC(C)(C)C1
    1.7, 0.91
- O=C(CN1C(=O)c2ccccc2C1=O)c1ccccc1
    1.3, -1.8
- COc1ccccc1NC(=O)Nc1ccccc1C(N)=O
    0.84, 1.3
- NC(=O)COc1ccccc1C(=O)NC12CC3CC(CC(C3)C1)C2
    0.44, -1
- CCOC(=O)c1ccc2[nH]cc(C(C)=O)c(=O)c2c1
    1.2, -1.3
- CCc1c(C)nc2ncnn2c1NC1CCCc2ccccc21 (configuration not stated)
    0.81, -0.3
- CC(C)=CCN1CCC(n2nccc2NC(=O)c2ccccc2Cl)CC1
    2.3, -0.16
- O=C(CSc1n[nH]c(-c2ccncc2)n1)Nc1ccc(F)cc1
    1.2, -1.5
- O=C(NCC1CC1)c1ccc2c3n(nc2c1)-c1ccc(Cl)cc1CO3
    0.93, -0.34
- CC1CCCN(C(=S)Nc2ccc(S(=O)(=O)N3CCCCC3)cc2)C1 (configuration not stated)
    1.1, 0.03
- NC(=S)N/N=C/c1ccc(-c2cc(Cl)cc(Cl)c2)o1
    0.56, 1.1
- CC1Cc2ccccc2N1C(=O)CSc1nnc2n1C(C)(C)Cc1ccccc1-2 (configuration not stated)
    1.3, -1.3
- COc1ccc(/C=C2\N=C(C)OC2=O)cc1OC(C)=O
    0.86, 0.01

Screens (PubChem BioAssay)
